Compound activity as filed in PubChem.
Vaccinia Venus: inhibitors of vaccinia virus (Venus reporter); hit rate 0.46% among 330,000; Vaccinia virus Venus reporter expression, fluorescence; Potency, µM (doses to about 36.5 µM), for inactives: at the top dose activity change, negative = inhibition, hits mostly inhibitors; active means well fitted inhibition curve with a large enough effect; inconclusive means small, poorly fitted or top-dose-only effect; inactive means no such curve, though single readings can be large or run the other way; tested in A549 cells; also: nearly all actives have a fitted effect of over 30% in size; inactives centre near -10
Vaccinia mCherry: inhibitors of vaccinia virus infection (mCherry reporter signal); Vaccinia virus mCherry reporter infection, fluorescence; about a quarter of the inactives have no number; Potency, µM (doses to about 36.5 µM), for inactives: top-dose activity change, negative = inhibition, usual class: inhibitors; hit rate 0.63% among 310,000; AID 720579; active = well fitted inhibition curve with a large enough effect; inconclusive = small, poorly fitted or top-dose-only effect; inactive = no such curve, though single readings can be large or run the other way; tested in A549 cells; also: nearly all actives have a fitted effect of over 35% in size; inactives centre near -10
The depositor's hits bear a star; i = inactive; ? = inconclusive; nt = no result given; & = joins results of further samples; [ ] = remark or other dose. % is scaled to controls: 0 for no effect and ±100 for the full control effect; potency is read from the fitted curve at half-maximal effect. The order is random. Share with any hit: about 0.86%.

1: CCn1nc(-c2ccc(C)cc2)nc2c(=O)n(C)c(=O)nc1-2
2: CCCCN(C(=O)CSc1nnnn1-c1ccccc1OC)C1CCS(=O)(=O)C1 (stereo not drawn)
3: O=C(CCn1c(=S)[nH]c2cc3c(cc2c1=O)OCO3)NCCc1ccccc1Cl
4: Cc1ccc(SC(C)C(=O)N2CCC(C(N)=O)CC2)cc1 (stereo not drawn)
5: CCCC(=O)Nc1ccc(C(=O)NNC(=S)NC(=O)c2ccc(Br)o2)cc1
6: CCOC(=O)N1CCC(NC(=O)c2ccc3c(c2)N(C)CCS3)CC1
7: CCOC(=O)c1ccc(CNC(=O)CSc2nnnn2-c2ccc(Cl)cc2)o1
8: CN(C)C(=O)C(CCN1CCC(O)(c2ccc(Cl)cc2)CC1)(c1ccccc1)c1ccccc1
assay / entry	1	2	3	4	5	6	7	8
Vaccinia mCherry	2.5µM*	i	-14%	-10%	-2%	0%	-14%	-6%&-14%
Vaccinia Venus	3.2µM*	-12%	?	-9%	-10%	-7%	-13%	-24%&-15%&-7%

9: COc1ccc2nc(/N=C/c3c(C)[nH]n(-c4ccc(C)cc4C)c3=O)sc2c1
10: Oc1oc(-c2ccccc2)nc1/C=N/c1nccs1
11: Cc1nc2nc(CNC(=O)OC(C)(C)C)nn2c(C)c1CCC(=O)NCc1ccc(F)cc1
12: Cc1ccc(CN2CCNC(=O)C2CC(=O)NCCCn2cccn2)o1 (stereo not drawn)
13: O=C(c1ccc(CS(=O)(=O)c2ccc(Br)cc2)o1)N1CCCCCC1
14: COc1ccc(OC)c(NC(=S)N2CCN(c3ccccn3)CC2)c1
15: Cc1[nH]nc(-c2ccc(OCc3cnn(-c4ccccc4)c3)c(C)c2O)c1Oc1ccccc1
16: CC(C)c1ccc(N=C2N=C(N)c3ccccc32)cc1
assay / entry	9	10	11	12	13	14	15	16
Vaccinia mCherry	-14%	-17%	-8%	i	i	-20%	?	?
Vaccinia Venus	-8%	8%	-6%	-4%	1%	-16%	?	?

17: O=C1NC[C@@H](CCCCN2C[C@H](Cc3ccc(O)cc3)N(CCc3ccccc3)C(=O)C2=O)N(CCC2CCCCC2)C1=O
18: Cc1cc(NC(=O)CCSc2nc(-c3ccco3)cc(C(F)(F)F)n2)n(-c2ccccc2)n1
19: CCC(CO)Oc1cc(NC(=O)c2ccc(C)cc2)c2ncn(C(C)C)c2c1 (stereo not drawn)
20: Cc1cccc(NS(=O)(=O)c2cc(C(=O)N3CCOCC3)ccc2Cl)c1
21: Cc1ccccc1-c1cc2nc(NCCCN(C)C)n(C)c(=O)c2s1
22: COc1ccc(OC)c(S(=O)(=O)N2CCC(C(=O)N3CCOCC3)CC2)c1
23: CC(C)Oc1ccc(F)cc1-c1cc(C(=O)NCc2cc(C(F)(F)F)cc(C(F)(F)F)c2)[nH]n1
24: COc1ccc(C(=O)/C=C/c2cn(CC(O)CN(CC(C)C)CC(C)C)c3ccccc23)cc1 (stereo not drawn)
assay / entry	17	18	19	20	21	22	23	24
Vaccinia mCherry	1%	-3%[1.46 µM]	-26%	i	6%	i	-28%	-14%
Vaccinia Venus	-1%	-22%	-17%	-17%	-9%	-13%	?	-9%

25: CCC(C)NC(=O)Cn1c(=O)n(-c2ccc(Cl)cc2)c(=O)c2c3c(sc21)CCCC3 (stereo not drawn)
26: NC(=O)NCCCC(=O)O
27: O=C(COc1ccc(Cl)cc1)N1CCN(S(=O)(=O)c2ccccc2)CC1
28: COc1ccc(N2CC(NC(=O)c3ccc(OC(C)C)cc3)CC2=O)cc1 (stereo not drawn)
29: CCOC(=O)c1cnn(-c2cc(C)cc(C)c2)c1N
30: Cc1cccc(N(CC(=O)NC(C)(C)C)C(=O)CCC(=O)Nc2ccccn2)c1
31: COc1ccc(C(=O)C2CCCN(Cc3cccn3-c3ccccn3)C2)c(C)c1 (stereo not drawn)
32: CCC(=O)OCC(=O)C1(OC(=O)CC)C(C)CC2C3CCC4=CC(=O)C=CC4(C)C3(Cl)C(O)CC21C (stereo not drawn)
assay / entry	25	26	27	28	29	30	31	32
Vaccinia mCherry	-6%	4%	-20%	-10%[7.34 µM]	-8%	i	-28%	-6%
Vaccinia Venus	-9%	-3%	-22%	-8%[7.34 µM]	-10%	-16%	-28%	-1%

33: COc1ccc2c(c1)C(=O)CC(c1ccccc1)O2 (stereo not drawn)
34: Cc1cccc(NC(=O)COc2ccc3c(c2)CCC3)n1
35: Cc1ccc(CN2CCN(Cc3ccc4cc(F)ccc4n3)CC2CCO)o1 (stereo not drawn)
36: CNc1cnn(-c2ccc(C)cc2)c(=O)c1Cl
37: CC(CNC(=O)C(=O)NC(C)CCc1ccccc1)Cc1ccccc1 (stereo not drawn)
38: O=C(COC(=O)/C=C/c1ccccc1Cl)NCC1CCCO1 (stereo not drawn)
39: O=C(NNC(=O)c1sccc1-n1cccc1)Nc1ccc(F)cc1
40: COc1ccc(-c2c(C)oc3c(CN4CCCCC4C)c(O)ccc3c2=O)cc1OC (stereo not drawn)
assay / entry	33	34	35	36	37	38	39	40
Vaccinia mCherry	-12%	i	-12%	-12%	-12%	-18%	-14%	i
Vaccinia Venus	3%	-11%	-3%	-9%	-7%	2%	-7%	-16%

41: CCCn1c(N)c(Sc2ccc([N+](=O)[O-])cc2)c(=O)n(CCC)c1=O
42: CCC(CO)Oc1cc(NC(=O)c2cccc(F)c2)c2ncn(C(C)C)c2c1 (stereo not drawn)
43: CC(C)(C)NC(=O)CN1CCC(O)(c2ccccc2)CC1
44: COc1ccc(C(=O)c2cc(OC)c(OC)c(OC)c2)cc1OC
45: CCc1nnc(NC(=O)CSc2nnc(C)n2-c2ccc(C)cc2)s1
46: O=C1NC(=S)S/C1=C\c1coc2ccc(O)cc2c1=O
47: CC(=O)c1ccc(NC(=S)N2CCN(c3ccccn3)CC2)cc1
48: O=C(COC(=O)CC1CC2CCC1C2)Nc1c(F)cccc1F (stereo not drawn)
assay / entry	41	42	43	44	45	46	47	48
Vaccinia mCherry	-15%	i	i	-24%	-12%	-17%	i	i
Vaccinia Venus	-8%	-15%	-3%	?	-5%	-1%	-9%	-9%

49: CC(=O)Nc1ccc(S(=O)(=O)N(C)CC(=O)Nc2ccccc2N2CCCC2)cc1
50: Cc1cccc(C)c1OCC(O)CN1CCN(C(=O)c2ccccc2)CC1 (stereo not drawn)
51: Cc1ccc(CNS(=O)(=O)c2cc3[nH]c(=O)c(=O)[nH]c3cc2C)cc1
52: O=S(=O)(Cc1ccc(Cl)cc1)C1CCCCC1O (stereo not drawn)
53: COCCNC(=O)C1CCCN(Cc2ccccc2Cl)CC1 (stereo not drawn)
54: CCN(CC)c1ccc(/C=N/NC(=O)c2ccoc2C)c(O)c1
55: O=c1c2ccccc2oc2ccc(NCCCn3ccnc3)cc12
56: Cc1ccc(S(=O)(=O)Nc2n[nH]nc2C(=O)NC2CCCCC2)cc1
assay / entry	49	50	51	52	53	54	55	56
Vaccinia mCherry	-24%	?	2%	-4%	8%	1.1µM*	-11%	i
Vaccinia Venus	-16%	-6%	5%	-16%	6%	?	-23%	-15%

Fetched one by one from above (two):
50: Cc1cccc(C)c1OCC(O)CN1CCN(C(=O)c2ccccc2)CC1 (stereo not drawn)
53: COCCNC(=O)C1CCCN(Cc2ccccc2Cl)CC1 (stereo not drawn)
assay / entry	50	53
Vaccinia mCherry	?	8%
Vaccinia Venus	-6%	6%

The listing continues:
57: COc1ccc(/C(N)=N/OC(=O)CCc2ccccc2)cc1
58: COC(=O)CN1C(=O)CSc2ccc(S(=O)(=O)Nc3ccc(C)c(Cl)c3)cc21
59: CC1(C)CC(=O)C(C=NCC(N)=O)=C(O)C1
60: Nc1ccc(O)c2c1C(=O)c1ccccc1C2=O
61: O=C(CN1c2cccc3cccc(c23)S1(=O)=O)NCc1ccc2c(c1)OCO2
62: O=C1CC(N2CCN(c3ccccc3)CC2)C(=O)N1c1ccc2c(c1)OCCO2 (stereo not drawn)
63: CCc1cc(=O)oc2cc(OC(C)=O)cc(OC(C)=O)c12
64: CSCC[C@H](NC(=O)[C@@H]1Cc2ccccc2CN1)C(=O)Nc1ccc2c(c1)OCO2
assay / entry	57	58	59	60	61	62	63	64
Vaccinia mCherry	i	-12%	-3%	210%[activator]	-20%	-7%	i[1.46 µM]	?
Vaccinia Venus	16%	-12%	-6%	192%[activator]	-1%	0%	-14%	-3%

65: Cc1ccc(C(=O)NCC(=O)NCCCc2ccccc2)cc1
66: COc1cc(/C=C/C(=O)OCC(=O)N2CCCc3ccccc32)ccc1O
67: O=C(Nc1ccc(Cl)cn1)c1ccc2ccccc2n1
68: O=C(c1cccc(C(F)(F)F)c1)N1CCc2c([nH]c3ccccc23)C1C(F)(F)F (stereo not drawn)
69: COc1ccc(C(=O)COC(=O)C(CCSC)NC(=O)COc2ccccc2)cc1 (stereo not drawn)
70: Cc1c(C(=O)N2CCC2(C)C(=O)O)oc2ccccc12 (stereo not drawn)
71: OCC1CCCCN1C(=S)NCc1ccco1 (stereo not drawn)
72: CCCCNC(=O)CN1C(=O)C(CC)Oc2ccc(Cl)cc21 (stereo not drawn)
assay / entry	65	66	67	68	69	70	71	72
Vaccinia mCherry	i	-29%	nt	-2%	-4%	i	i	i
Vaccinia Venus	-1%	-22%	?	-23%	-12%	4%	-8%	-14%

73: CC(C)(C)OC(=O)NCCc1nnc(SCc2cccc(Cl)c2)o1
74: COc1ccc(C(=O)Oc2ccc[nH]c2=O)cc1
75: CCOc1ccccc1N(CC(=O)N1CCCCCC1)S(=O)(=O)c1ccc(C)cc1
76: Cc1ccc2c(c1)N(C(=O)N1CCC(C(=O)Nc3cccc(F)c3)CC1)CCO2
77: COc1ccc(Cl)cc1NC(=O)NCCCl
78: Cc1ccccc1NS(=O)(=O)c1nnc(NC(=O)c2ccccc2F)s1
79: CCOc1ccc(NC(=O)CN(C)C(=O)c2ccccc2SCC(=O)N2CCCC2)cc1OCC
80: CC(=O)c1ccc(S(=O)(=O)N2CCN(C(=O)C3CCCC3)CC2)cc1
assay / entry	73	74	75	76	77	78	79	80
Vaccinia mCherry	-14%[7.34 µM]	-11%	-1%	-10%	nt	i	i	-5%
Vaccinia Venus	-9%[7.34 µM]	-13%	-17%	-10%	10µM*	-8%	-14%	6%

81: Cc1ccc(C(=O)c2cc3ccccc3o2)cc1[N+](=O)[O-]
82: COc1ccc(C(=O)OCC(=O)c2ccc[nH]2)c(OC)c1
83: O=C(CSc1nc2ccsc2c(=O)n1CC1CCC(C(=O)O)CC1)c1ccc(Cl)cc1 (stereo not drawn)
84: COCCNC(=O)CN1CCC(NC(=O)c2ccco2)CC1
85: CCn1c(SCC(=O)Nc2ccccc2F)nnc1-c1ccoc1C
86: COc1cccc(-c2nn(-c3ccccc3)cc2CN(C)C(C)c2ccncn2)c1 (stereo not drawn)
87: OCC[C@@H]1C[C@@H](O)[C@H](O)[C@]2(Cc3ccccc3O2)O1
88: COc1ccccc1CNS(=O)(=O)c1cc(-c2cc(C)no2)ccc1C(C)C
assay / entry	81	82	83	84	85	86	87	88
Vaccinia mCherry	?	-11%	-9%	-17%	12%	-23%	i	-11%
Vaccinia Venus	-7%	-2%	-7%	-4%	-6%	-29%	-3%	-9%

In another format: 13 of the compounds above
Sequence of screens – Vaccinia mCherry	Vaccinia Venus
(76) Cc1ccc2c(c1)N(C(=O)N1CCC(C(=O)Nc3cccc(F)c3)CC1)CCO2
    -10%	-10%
(77) COc1ccc(Cl)cc1NC(=O)NCCCl
    nt	10µM*
(78) Cc1ccccc1NS(=O)(=O)c1nnc(NC(=O)c2ccccc2F)s1
    i	-8%
(79) CCOc1ccc(NC(=O)CN(C)C(=O)c2ccccc2SCC(=O)N2CCCC2)cc1OCC
    i	-14%
(80) CC(=O)c1ccc(S(=O)(=O)N2CCN(C(=O)C3CCCC3)CC2)cc1
    -5%	6%
(81) Cc1ccc(C(=O)c2cc3ccccc3o2)cc1[N+](=O)[O-]
    ?	-7%
(82) COc1ccc(C(=O)OCC(=O)c2ccc[nH]2)c(OC)c1
    -11%	-2%
(83) O=C(CSc1nc2ccsc2c(=O)n1CC1CCC(C(=O)O)CC1)c1ccc(Cl)cc1 (stereo not drawn)
    -9%	-7%
(84) COCCNC(=O)CN1CCC(NC(=O)c2ccco2)CC1
    -17%	-4%
(85) CCn1c(SCC(=O)Nc2ccccc2F)nnc1-c1ccoc1C
    12%	-6%
(86) COc1cccc(-c2nn(-c3ccccc3)cc2CN(C)C(C)c2ccncn2)c1 (stereo not drawn)
    -23%	-29%
(87) OCC[C@@H]1C[C@@H](O)[C@H](O)[C@]2(Cc3ccccc3O2)O1
    i	-3%
(88) COc1ccccc1CNS(=O)(=O)c1cc(-c2cc(C)no2)ccc1C(C)C
    -11%	-9%
